Screening data deposited in PubChem by several laboratories.
HIV Env fusion = inhibitors of HIV-1 Env-driven cell-cell fusion, primary screen, HeLa-JRFL effector, CEM21 target cells, luciferase | inhibition, % at 12.3 µM | actives 1.1% (n = 360,000) | AID 651610, 2012;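 active = mean replicate inhibition score of at least 50 and every replicate individually at or above 50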;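 note: 0% = plate neutral controls and 100% = maraviroc near 300 nM; one replicate is shown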
PABP FP inh = PABP poly(A) RNA binding inhibitors, primary screen, biochemical, fluorescence polarization, uHTS; inhibition, % at 35 µM; actives 1% (n = 290,000);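 active = 50% or more with normal probe brightness, or confirmed in later tests; about a fifth of its hits are not listed in these tables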;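 note: calls also rest on retests at 20 µM and on dose response follow-up; controls were probe without protein and protein plus probe with vehicle; some compounds called inactive have numbers as strong as hits; many hits fall short of the cut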
Target sequence (P11940 whole entry, looked up): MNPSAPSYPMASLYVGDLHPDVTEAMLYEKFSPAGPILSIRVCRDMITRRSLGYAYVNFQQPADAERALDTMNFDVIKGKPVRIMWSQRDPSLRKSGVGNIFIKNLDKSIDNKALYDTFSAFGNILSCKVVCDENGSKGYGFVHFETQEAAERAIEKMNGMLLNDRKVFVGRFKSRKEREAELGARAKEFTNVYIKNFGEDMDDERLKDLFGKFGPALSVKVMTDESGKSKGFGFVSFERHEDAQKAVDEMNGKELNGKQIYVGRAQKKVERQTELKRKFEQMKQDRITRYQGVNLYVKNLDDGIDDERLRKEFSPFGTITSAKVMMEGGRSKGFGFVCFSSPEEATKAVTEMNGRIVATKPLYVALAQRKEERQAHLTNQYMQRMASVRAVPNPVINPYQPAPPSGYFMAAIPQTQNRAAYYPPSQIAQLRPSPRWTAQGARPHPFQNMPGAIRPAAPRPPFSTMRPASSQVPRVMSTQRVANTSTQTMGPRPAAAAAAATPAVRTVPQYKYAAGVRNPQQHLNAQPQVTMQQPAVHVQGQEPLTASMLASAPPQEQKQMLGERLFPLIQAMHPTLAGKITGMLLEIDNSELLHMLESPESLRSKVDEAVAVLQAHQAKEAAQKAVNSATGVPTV
MT1-MMP act inh = blockers of MT1-MMP proenzyme processing, primary screen, HT1080 RFP-PRO-GFP cells, GFP/RFP fluorescence. actives 0.061% (n = 360,000). Matrix metalloproteinase-14 (Homo sapiens), P50281. GFP/RFP ratio fluorescence, overnight; percent of plate control window, DMSO zero. GFP/RFP ratio change, % at 20 µM;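 active = GFP/RFP ratio change of at least 30% with cell ATP level not reduced by more than half and red fluorescence within 50% of control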; note: strong numbers were not always called active
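system = RFP-PRO-GFP reporter HT1080 cells | dosing = 20 µM single dose, 1% DMSO | timing = overnight cell settling, then overnight compound exposure, 37 °C, 5% CO2 | read-out basis = GFP/RFP fluorescence ratio | controls = DMSO and RFP-L50D-GFP cell wells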
eIF4H inh = human eIF4H binding inhibitors, primary screen, translation initiation inhibitor project, biochemical, uHTS, fluorescence polarization; eIF4H fluorescence polarization binding assay; inhibition, % at 35 µM; actives 0.94% (n = 290,000);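 active = 50% or more with normal probe brightness, or confirmed in later tests; about a fifth of its hits are not listed in these tables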;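 note: calls also rest on retests at 20 µM and on dose response follow-up; 0% = protein and probe with vehicle and 100% = probe without protein; strong numbers were not always called active; many hits fall short of the cut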
UUG fidelity = modulators of yeast start codon fidelity, primary screen, whole organism, S. cerevisiae, single point, plate reader; S. cerevisiae UUG-firefly luciferase reporter, luminescence/redox ratio; activity score, % at 18.7 µM; actives 0.13% (n = 350,000);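 active = replicate mean at a twofold rise or more, about +100% in these data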;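 note: firefly luciferase made from a UUG start codon reports start codon fidelity; reporter light over untreated wells divided by growth signal over untreated wells; some hits fall short of that in this replicate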
CSC inhib = cancer stem cell viability inhibitors, primary screen, luminescence. cancer stem cell-like cells viability. inhibition, % at 7.5 µM. actives 1.1% (n = 300,000);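 active = mean at 75% or more and at least half the replicates too; tested in HMLE shEcad cells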;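 note: 0% = median of negative and 100% = median of positive control wells; the first replicate is given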
Rce1 inh = yeast Rce1p protease inhibitors, primary screen, biochemical, fluorescence, cell-free homogeneous. CAAX prenyl protease 2 (Saccharomyces cerevisiae (strain ATCC 204508 / S288c)), Q03530. yeast membranes, quenched prenylated peptide cleavage fluorescence. calls only. actives 0.27% (n = 290,000);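 active = fall in fluorescence gain of 50% or more versus controls, with final raw signal at or below 3038400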;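 note: plate controls were neutral control wells for no effect and wells lacking membranes for full effect; tested at 10 µM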
Target sequence (Q03530 whole entry, looked up): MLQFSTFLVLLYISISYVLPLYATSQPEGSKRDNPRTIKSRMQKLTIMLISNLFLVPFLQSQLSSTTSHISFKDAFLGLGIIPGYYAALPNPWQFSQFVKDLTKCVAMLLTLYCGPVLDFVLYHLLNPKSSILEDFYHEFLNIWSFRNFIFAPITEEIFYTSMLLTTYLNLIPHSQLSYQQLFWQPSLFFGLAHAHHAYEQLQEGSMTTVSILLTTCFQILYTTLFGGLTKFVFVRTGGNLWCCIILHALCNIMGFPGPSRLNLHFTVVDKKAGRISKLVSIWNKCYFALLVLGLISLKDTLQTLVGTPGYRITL
MT1-MMP act inh RFP = further read-out of MT1-MMP act inh, marked with its call; RFP signal change, %; measured here: RFP expression control read;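 0 = vehicle wells; hits needed this value within 50% of zero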
* marks the source's active call; other numbers are inactive results; i = inactive; . = not tested or not shown; & = joins results of further samples; [ ] = another dose, or the depositor's remark. Rows are unselected. About 2.9% of those tested had a hit in this group.

Below each SMILES: HIV Env fusion | PABP FP inh | MT1-MMP act inh | MT1-MMP act inh RFP | eIF4H inh | UUG fidelity | CSC inhib | Rce1 inh
#1 Nn1c(=O)[nH]c2ccccc2c1=O
 : . | 3 | 3 | 5 | 16 | -11 | -11 | i
#2 COC(=O)c1nn(-c2ccc(Oc3ccccc3)cc2)c(=O)cc1O
 : 9 | 4 | 3 | 4 | -6 | . | . | i
#3 Cc1cc(C)n(C(CC(=O)O)C(=O)O)n1 (stereo unspecified)
 : -11 | 5 | 0 | -8 | -2 | . | -7 | i
#4 COc1ccc(C(C)=O)cc1COC(=O)c1cnc(C)cn1
 : 9 | 9 | 4 | -2 | 0 | -10 | -4 | i
#5 C=C(C)CSc1nnc(CCNC(=O)OC(C)(C)C)o1
 : . | 1 | . | . | -8 | 2 | -9 | i
#6 CCOC(=O)CCC(=O)N1CCOCCOCCOCC1
 : -37 | 4 | 3 | 3 | 2 | 2 | 1 | i
#7 CCOC(=O)C1=C(C)NC(=S)NC1c1ccc(OCC(=O)N2CCCCCC2)c(OC)c1 (stereo unspecified)
 : -5 | -2 | 2 | 6 | -4 | -20 | -8 | .
#8 COCn1cnc(-c2ccccc2)c1-c1ccccc1
 : -4 | . | 5 | 9 | . | -20 | -9 | i
#9 O=C(c1ccccc1)n1c(=S)nc2ccccn21
 : . | 6 | 1 | 1 | -5 | -49 | 15 | i
#10 O=C(Nc1nc2c(F)cc(F)cc2s1)C1CC1
 : -246 | 4 | 3 | -9 | -7 | -10 | 5 | i
#11 CN(Cc1ccccc1)C(=O)c1[nH]cnc1C(=O)NCC(=O)OCc1ccccc1
 : -50 | -6 | -2 | 3 | -14 | -17 | -9 | i
#12 Cc1cnc([N+](=O)[O-])n1CCOC(=O)NC(=O)c1ccccc1
 : -12 | -16 | 1 | 4 | -1 | . | -2 | i
#13 O=C(NCc1ccco1)c1nc2c(nnn2Cc2ccccc2Cl)c(=O)[nH]1
 : . | 10 | -56 | -31 | -2 | -21 | 94* | i
#14 CCn1c(=O)cc(SCC(=O)NCc2ccc3c(c2)OCO3)c2ccccc21
 : . | 3 | 5 | 2 | -4 | -2 | 0 | i
#15 COC(=O)[C@H](Cc1ccccc1)NC(=O)N1CCN(c2ccccc2)CC1
 : 7 | -7 | -1 | 2 | -2 | -17 | -8 | i
#16 Cc1ccsc1/C=C(\C#N)C(=O)NCc1cccnc1
 : -47 | -1 | 0 | -3 | -5 | -16 | -6 | i
#17 CC(=O)Nc1ccc(C(=O)OCC(=O)NC(=O)NCc2ccccc2)cc1
 : 71* | . | -1 | 0 | . | 1 | . | .
#18 CCCC(=O)N(CCN(Cc1ccccc1)C(=O)CCC)Cc1ccccc1
 : . | 2 | -8 | -6 | 0 | -6 | 5 | i
#19 O=C(CN(Cc1ccco1)C(=O)c1ccc(F)cc1)Nc1ccccc1Br
 : . | . | -5 | -5 | . | 1 | -4 | .
#20 CCOC(=O)C1C(=O)OC(C)(C)C1C(C)C(=O)c1ccc(C)cc1 (stereo unspecified)
 : -23 | 22 | -9 | 1 | -12 | -7 | 2 | i
#21 Cc1ccc(C(=O)N(c2ccccn2)C(C)c2ccco2)cc1C (stereo unspecified)
 : -35 | -11 | 1 | -3 | -11 | -8 | 25 | i
#22 O=C1CN(C(=O)CN2CCOCC2)C(c2ccccc2)c2cc(Br)ccc2N1 (stereo unspecified)
 : 16 | 12 | -1 | 2 | -7 | -14 | -9 | i
#23 OC(Cc1ccccc1Br)c1ncc(-c2cccc(C(F)(F)F)c2)[nH]1 (stereo unspecified)
 : 6 | . | -5 | -5 | . | -19 | . | .
#24 COc1ccc(N(C(=O)C2CCCCC2)S(=O)(=O)c2cccc3cccnc23)cc1
 : 4 | 3 | -2 | -4 | -1 | -7 | -17 | i
#25 NC(c1csc(Nc2nncc3ccccc23)n1)C1CCCCC1 (stereo unspecified)
 : 0 | . | -6 | -8 | . | -4 | . | .
#26 Cn1cc(C(=O)N2CCN(c3ccccc3)CC2)c(=O)c2cc(S(=O)(=O)N3CCCC3)ccc21
 : -8 | 6 | 4 | 5 | -6 | -9 | -10 | i
#27 CCc1nn(CC(=O)N2CCN(c3ccc(F)cc3)CC2)c(=O)c2cc3occc3n12
 : -7 | 10 | -3 | -4 | 2 | -18 | 0 | i
#28 Cc1ccc(S(=O)(=O)N2CCN(C(=O)c3cc4c(C)nn(-c5ccccc5C)c4s3)CC2)cc1
 : . | -10 | 1 | -2 | -6 | -15 | 3 | i
#29 N#Cc1ccc(-c2ccc(OCC(O)CN3CCOCC3)cc2)cc1 (stereo unspecified)
 : 6 | -8 | -2 | 0 | -6 | . | -2 | .
#30 Cc1ccc(NC2=Nc3ccccc3N3C2=Nc2c(c(C)nn2-c2ccccc2)C3c2ccc(O)c(O)c2)cc1 (stereo unspecified)
 : . | 14 | -4 | -7 | 24 | 10 | . | .

Records above that bear a hit mark in HIV Env fusion.
No.	Structure	HIV Env fusion	MT1-MMP act inh	MT1-MMP act inh RFP	UUG fidelity	Rce1 inh
17	CC(=O)Nc1ccc(C(=O)OCC(=O)NC(=O)NCc2ccccc2)cc1	71*	-1	0	1	.

Quoted from the listing.
NC(c1csc(Nc2nncc3ccccc23)n1)C1CCCCC1 (stereo unspecified) | HIV Env fusion: 0
Cc1ccc(S(=O)(=O)N2CCN(C(=O)c3cc4c(C)nn(-c5ccccc5C)c4s3)CC2)cc1 | MT1-MMP act inh RFP: -2
N#Cc1ccc(-c2ccc(OCC(O)CN3CCOCC3)cc2)cc1 (stereo unspecified) | eIF4H inh: -6
O=C(NCc1ccco1)c1nc2c(nnn2Cc2ccccc2Cl)c(=O)[nH]1 | MT1-MMP act inh: -56
O=C(Nc1nc2c(F)cc(F)cc2s1)C1CC1 | UUG fidelity: -10
Cn1cc(C(=O)N2CCN(c3ccccc3)CC2)c(=O)c2cc(S(=O)(=O)N3CCCC3)ccc21 | eIF4H inh: -6

Returning to the listing, repeating the four entries before the break.
Below each SMILES: HIV Env fusion | PABP FP inh | MT1-MMP act inh | MT1-MMP act inh RFP | eIF4H inh | UUG fidelity | CSC inhib | Rce1 inh
#27 CCc1nn(CC(=O)N2CCN(c3ccc(F)cc3)CC2)c(=O)c2cc3occc3n12
 : -7 | 10 | -3 | -4 | 2 | -18 | 0 | i
#28 Cc1ccc(S(=O)(=O)N2CCN(C(=O)c3cc4c(C)nn(-c5ccccc5C)c4s3)CC2)cc1
 : . | -10 | 1 | -2 | -6 | -15 | 3 | i
#29 N#Cc1ccc(-c2ccc(OCC(O)CN3CCOCC3)cc2)cc1 (stereo unspecified)
 : 6 | -8 | -2 | 0 | -6 | . | -2 | .
#30 Cc1ccc(NC2=Nc3ccccc3N3C2=Nc2c(c(C)nn2-c2ccccc2)C3c2ccc(O)c(O)c2)cc1 (stereo unspecified)
 : . | 14 | -4 | -7 | 24 | 10 | . | .
#31 O=C(C1=C[C@H](C2CCCCC2)C[C@H](OCCCCO)O1)N1CCN(Cc2ccccc2)CC1
 : -4[16.7 µM] | -4 | 0 | 0 | 3 | 5&-6 | 4 | i
#32 Cc1ccc(CNC(=O)C(C)OC(=O)c2cccs2)cc1 (stereo unspecified)
 : -46 | -2 | 6 | 4 | -6 | -13 | -18 | i
#33 NC(Cc1ccc(Cl)cc1)c1csc(NC(=O)NCC2CCCCC2)n1 (stereo unspecified)
 : -7 | . | -1 | -10 | . | -13 | . | .
#34 Cc1ccc(C)c(OCCC(=O)NCCc2ccc(S(N)(=O)=O)cc2)c1
 : 5 | 3 | -5 | -3 | -8 | -12 | -10 | i
#35 O=C(COC(=O)CNC(=O)c1cccs1)Nc1ccc(C(F)(F)F)cc1[N+](=O)[O-]
 : 1 | . | 0 | -1 | . | -14 | -3 | i
#36 Cc1ccc(NC(=O)c2ccc([N+](=O)[O-])s2)cc1S(=O)(=O)N1CCOCC1
 : 2 | . | 2 | -26 | . | -4 | 25 | .
#37 CCS(=O)(=O)N1CCN(c2cnn(-c3ccccc3)c(=O)c2Cl)CC1
 : 20 | 3 | 2 | 1 | -6 | -7 | -5 | i
#38 CCNC(=O)C1(C)CCCN(C(=O)COCc2ccccc2)C1 (stereo unspecified)
 : 14 | . | -6 | 1 | . | -10 | . | .
#39 O=C(Nc1nc(-c2ccccn2)cs1)c1cc(Cl)ccc1[N+](=O)[O-]
 : -28 | 10 | 11 | -2 | 22 | . | 94* | i
#40 CCOC(=O)c1c(C)nc2sc(C(=O)Nc3ccc(OC)cc3)c(N)c2c1-c1ccc(OC)cc1
 : . | 3 | -5 | -17 | -5 | . | 0 | i
#41 COc1ccc2nc(NC(=O)CSc3nnc(C)n3N)sc2c1
 : 6 | -12 | -2 | -3 | 5 | -36 | -7 | i
#42 O=C(N/N=C/c1ccncc1)NC1CCCCC1
 : 2 | 1 | 0 | 1 | 2 | . | -13 | i
#43 CCCCn1c(N)c(N(CC(C)C)C(=O)COC(=O)C2(c3ccccc3)CC2)c(=O)[nH]c1=O
 : -21 | . | -8 | 1 | . | 1 | -6 | i
#44 Cc1ccc(C)c(Cc2c(C)nc3c(C(=O)N4CCOCC4)cnn3c2C)c1
 : -8 | 1 | -1 | 1 | -2 | -11 | -2 | i
#45 O=C1CCCN1CC(O)CS(=O)(=O)Cc1ccc(Cl)cc1 (stereo unspecified)
 : 12 | . | 2 | -1 | . | -11 | -6 | i
#46 O=S(=O)(NCC1CN(S(=O)(=O)c2ccc3c(c2)OCCO3)C1)c1c(F)cccc1F
 : 5 | . | -2 | -1 | . | -17 | . | .
#47 O=C(Nc1ccc(Cl)cc1N1CCOCC1)C1CC1
 : -6 | -8 | 2 | 4 | -15 | 4 | -5 | i
#48 CSc1nc(N)c2c(n1)N(C)C=NS2(=O)=O
 : 8 | . | -2 | 3 | . | -10 | . | .
#49 COc1ccc(-n2c(COc3ccc(Cl)cc3Cl)n[nH]c2=S)cc1
 : -363 | . | 7 | -2 | . | -25 | . | .
#50 Cc1ccc(-n2nnnc2SCC(=O)c2cc(C)n(CC3CCCO3)c2C)cc1 (stereo unspecified)
 : 3 | 1 | 2 | -1 | 12 | -25 | 10 | i
#51 O=C(CCc1ccccc1F)N1CCN(c2ccc(C(F)(F)F)cn2)CC1
 : 10 | 7 | 4 | 4 | -3 | -15 | 7 | i
#52 CCC(C(=O)Nc1cc(F)ccc1F)n1nc(C)c2c(C)n(-c3ccc(C)cc3)nc2c1=O (stereo unspecified)
 : -1 | 3 | -2 | -26 | -3 | -11 | -3 | i
#53 COC(=O)c1ccccc1NC(=O)C(C)c1ccc([N+](=O)[O-])cc1 (stereo unspecified)
 : -7 | 18 | 2 | -6 | -1 | . | 18 | .
#54 COc1ccc(C(=O)Nc2ccccc2)cc1S(=O)(=O)Nc1cc(C)on1
 : -19 | -7 | 3 | -1 | -3 | . | 1 | i
#55 Cc1ccc(S(=O)(=O)NCCOCCNS(=O)(=O)c2ccc(C)cc2)cc1
 : -16 | 3 | -6 | -1 | 0 | -10 | -7 | i
#56 O=C(NCCC(=O)N(Cc1ccco1)Cc1cccs1)c1ccc(Br)cc1
 : 10 | . | -2 | -3 | . | 12 | . | .
#57 CCOc1cc(/C=N/n2cnnc2)ccc1OS(=O)(=O)c1ccccc1
 : 21 | 4 | 2 | 4 | -4 | -13 | -3 | .
